VDR inhibitor = Inhibitors of the vitamin D receptor (VDR): qHTS. Potency, µM, for the others: max response, negative = inhibition, actives largely listed as inhibitors. VDR-SRC2-3 peptide fluorescence polarization, 2 h. Vitamin D3 receptor (Homo sapiens), P11473. actives 0.93% (n = 400,000). AID 504847, 2011; active = well fitted inhibition curve with a large enough effect; inconclusive = small, poorly fitted or top-dose-only effect, or another doubt; inactive = no such curve, though single readings can be large or run the other way; also: series mostly up to about 120 µM
Target sequence (P11473 whole entry, looked up): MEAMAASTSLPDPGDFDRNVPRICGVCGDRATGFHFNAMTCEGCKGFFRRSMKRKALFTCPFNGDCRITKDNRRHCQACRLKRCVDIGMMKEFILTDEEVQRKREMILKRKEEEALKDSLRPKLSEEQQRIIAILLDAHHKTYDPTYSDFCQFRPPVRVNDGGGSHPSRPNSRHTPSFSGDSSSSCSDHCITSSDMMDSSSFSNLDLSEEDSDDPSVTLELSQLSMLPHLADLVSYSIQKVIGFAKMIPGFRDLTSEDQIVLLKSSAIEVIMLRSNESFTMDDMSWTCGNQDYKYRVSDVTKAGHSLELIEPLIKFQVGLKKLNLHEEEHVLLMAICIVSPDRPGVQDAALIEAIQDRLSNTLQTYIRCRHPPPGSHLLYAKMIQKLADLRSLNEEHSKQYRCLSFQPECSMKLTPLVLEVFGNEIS
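Fluorescence polarization assay of small-molecule disruption of VDR binding to coregulator peptide SRC2-3. Compounds and controls pin-transferred, then read after 2 h incubation at ambient room temperature.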
Active calls of the source: *; ? = inconclusive; & = joins results of further samples. % is scaled to controls: 0 for no effect and ±100 for the full control effect; potency is read from the fitted curve at half-maximal effect. Some of the compounds tested; rates above refer to the full screens.

mol,VDR inhibitor
CC(=O)c1ccc(S(=O)(=O)N2CCN(C(=O)CSC(=S)N3CCCC3)CC2)cc1,3%
COC(=O)[C@@H]1[C@@H](C)N(Cc2ccccc2)C(=O)N[C@H]1c1cccc(C(F)(F)F)c1,2%
Cc1ccc(C(=O)N2CCCCC2)cc1S(=O)(=O)N1CCCC1,-12%
CCCc1cc(N2CCC(C(N)=O)CC2)nc(-c2ccccc2)n1,10%
COc1cccc(C(=O)NCCS(=O)(=O)N(C)C2CCCCC2)c1,-2%
Cc1ccc(NC(=S)N(CCN(C)C)Cc2cccs2)c(C)c1,?
COc1ccccc1NC(=O)c1cc2cc3ccc(OC)c(Cl)c3nc2s1,1%
COc1cccc(-c2ccc3ncnc(NC4CC4)c3c2)c1,-6%
CCOc1nc2cnccc2n(CC(=O)Nc2c(C)cccc2CC)c1=O,-2%
CCN(C(=O)COC(=O)C1CC1C)c1c(N)n(Cc2ccccc2)c(=O)[nH]c1=O (stereo not given),?
COc1ccc(NCc2n[nH]c(=O)c3ccccc23)cc1,4%
O=C1C2CC=CCC2C(=O)N1c1n[nH]c(-c2ccccc2)n1 (stereo not given),13%
CCOC(=O)Cc1csc(NC(=O)c2c(-c3c(F)cccc3Cl)noc2C)n1,-2%
Cc1ccc(C(=O)N2CCN(c3ccc(N4CCOCC4)nn3)CC2)cc1C,-3%
Cc1c(C2(O)C(=O)Nc3ccc(F)cc32)c(=O)n(-c2ccccc2)n1C (stereo not given),9%
Fc1ccc(-c2cn3cc(Cc4ccccc4Cl)sc3n2)cc1,-1%
CC1Cc2ccccc2N1S(=O)(=O)c1cccc(C(=O)N2CC(=O)Nc3ccccc32)c1 (stereo not given),8%
CCN(CC)CC(=O)NC1CCCc2c1cnn2-c1cc(F)cc(F)c1 (stereo not given),8%
O=C(Cc1n[nH]c(=O)c2ccccc12)Nc1cccc(S(=O)(=O)N2CCCC2)c1,12%
COc1ccc(/C=N/NC(=O)C(C)n2nnc3ccccc32)cc1OC (stereo not given),-9%
CNNC(=O)C(=O)NNS(=O)(=O)c1ccccc1,-12%
O=C(CSc1cn(CC(=O)N2CCCCC2)c2ccccc12)Nc1ccccc1F,6%
CCNC(=S)NNC(=O)c1ccc(OC(F)F)cc1,4%
CC1CCCCN1C(=O)c1ccc(Br)o1 (stereo not given),3%
CC(C)(C)n1nc(-c2ccc(Cl)cc2)c2c(N)ncnc21,14%&3%&-2%
O=c1[nH]nc(C(F)(F)F)c2nnn(Cc3ccccc3Cl)c12,-17%
O=C(CN1CCCCC1)Nc1ccccc1,17%
C=CCOC(=O)c1sc(NC(=O)c2ccc(OC)cc2)nc1C,-4%
CCCN1CCC(=O)N([C@H](CN=[N+]=[N-])CC(C)C)CC1,-8%
O=C(CNC1CCCC1)Nc1ccc(S(=O)(=O)N2CCCCC2)cc1,3%

Sorted by the number under VDR inhibitor (lowest first): five from the list above.
Compound,VDR inhibitor
CNNC(=O)C(=O)NNS(=O)(=O)c1ccccc1,-12%
COC(=O)[C@@H]1[C@@H](C)N(Cc2ccccc2)C(=O)N[C@H]1c1cccc(C(F)(F)F)c1,2%
O=C(CSc1cn(CC(=O)N2CCCCC2)c2ccccc12)Nc1ccccc1F,6%
CCCc1cc(N2CCC(C(N)=O)CC2)nc(-c2ccccc2)n1,10%
O=C1C2CC=CCC2C(=O)N1c1n[nH]c(-c2ccccc2)n1 (stereo not given),13%

The list continues.
mol,VDR inhibitor
CC(C)CNC(=O)COC(=O)c1ccccc1SCC(=O)NCC(C)C,-10%
Cc1nc2ccc(S(=O)(=O)NCC(=O)NCCc3ccc(Cl)cc3)cc2s1,-4%
O=C(CSCc1ccco1)NC1CCCC1,-23%
Cn1c(=O)c2c(-c3ccc(Cl)cc3)n(CCc3ccccc3)cc2n(C)c1=O,-1%
N/C(=N\OC(=O)COc1ccc(Cl)cc1)c1cccnc1,-9%
C=CCOc1ccc2c(c1)c(=O)cc(C(=O)O)n2CC,-15%
CCc1nc(SCc2ccc([N+](=O)[O-])cc2)n[nH]1,16%
COc1cc(NC(=O)C2CCCO2)c(OC)cc1Cl (stereo not given),-3%
OCCn1c(CSc2nc3ccccc3n2CCO)nc2ccccc21,1%
O=C(N1CCOCC1)N1CCCC(c2nc(-c3cccs3)no2)C1 (stereo not given),10%
CCC(C)NC(=O)c1ccccc1NC(=O)Nc1ccccc1 (stereo not given),-5%
O=C1CCC(C(=O)N2CCN(c3cnccn3)CC2)CN1CCc1cccc(F)c1 (stereo not given),2%
COc1cc(C2C3C(C)N(C)C(=O)N(C)C3N(C)C(=O)N2C)ccc1O (stereo not given),12%
O=C(O)CNC(=O)C1CCCN1C(=O)CNC(=O)OCc1ccccc1 (stereo not given),?
CCOc1ccccc1NC(=S)Nc1ccccc1F,1%
CCSc1nnc(COc2ccccc2)n1CC,-12%
Cc1cc(C)cc(C(=O)NCC(=O)N2CCC3(CC2)NCCc2[nH]cnc23)c1,2%
O=C(CNc1ccc(Br)cc1)NC(=O)NC1CCCCC1,-2%
CCn1c(SCC(=O)c2ccccc2)nc2sc3c(c2c1=O)CCN(C)C3,-6%
C[C@H](CO)N1C[C@H](C)[C@@H](CN(C)S(C)(=O)=O)Oc2c(NC(=O)Nc3ccc(C(F)(F)F)cc3)cccc2C1=O,9%
O=C(CSc1nc2[nH]c(=O)cc(O)c2s1)Nc1cccc(Br)c1,-21%
O=C1C=C(c2ccc(O)cc2)C[C@@H](c2ccc(Cl)cc2)C1,6%
CN1CCN(c2ncc3nc(-c4cccs4)c(=O)n(CCC#N)c3n2)CC1,-1%
CC(C)c1ccc(/C=C(\c2nc3ccccc3[nH]2)S(=O)(=O)c2ccccc2)cc1,?
Cc1ccc2nc(SCC(=O)N(CC(C)C)c3c(N)n(Cc4ccccc4)c(=O)[nH]c3=O)[nH]c2c1,12%
COc1ccc(NC(=O)C2Cc3ccccc3N2C(=O)c2ccccc2)c(OC)c1 (stereo not given),-2%
Cc1cccc(Nc2ncccc2C(=O)NCc2cccs2)c1C,8%
CC1(C)C2CCC1(C)C1(C2)NC(=O)c2ccccc2O1 (stereo not given),-6%
CCCCCOC(=O)Cn1c(N2CCCCCC2)nc2c1c(=O)[nH]c(=O)n2C,-14%
COc1ccc(S(=O)(=O)NCCS(=O)(=O)N2CCN(c3ccccc3)CC2)cc1C,0%
CCN(CC(=O)Nc1c(F)cccc1F)C(=O)CCCOc1ccccc1,-10%
CCN1CCN(c2ncnc3c2cnn3-c2cccc(C)c2)CC1,9%
CC(C)(C)OC(=O)N1CCC(c2c(C(=O)Nc3ccc4c(c3)OCCO4)cnn2-c2ccc(Cl)cc2)CC1,17%
Cn1c(CSCc2ccccc2)nnc1SCC(=O)Nc1ccc(C(=O)O)cc1,0%
Cc1coc(NC(=O)CSc2nc(-c3ccc(Cl)cc3)cc(C(F)(F)F)c2C#N)n1,1%
COC(=O)c1cc(OC)c(OC)cc1NC(=O)c1cc(OC)cc(OC)c1,-6%
O=C(NCc1ccccc1)Oc1cccc(Cl)c1,3%
N[C@@H](C(=O)O)c1ccc(C(=O)O)cc1,-3%&6%
N#CCSc1nnc(CNc2ccc(F)cc2)o1,12%
O=C1COc2ccc(C(=O)COC(=O)Cn3cnc4ccccc43)cc2N1,25%
CCN=C(Nc1ccc(Cl)cc1)c1cccnc1,-17%
COCCn1c(=NC(=O)c2ccc3c(c2)OCCO3)sc2cc(NC(C)=O)ccc21,14%
CC(N=C1NS(=O)(=O)c2ccccc21)C(=O)Nc1ccc(F)cc1Cl (stereo not given),-8%
CCOc1ccc(C(=O)/C=C/Nc2ccc(S(=O)(=O)Nc3onc(C)c3C)cc2)cc1,0%
O=C(NC1CCCC1)c1cc(-c2ccc(Cl)c(Cl)c2)on1,11%
Cc1ccccc1OCC(=O)Nc1ccccc1N1CCCCC1,13%
CCOC(=O)N1CCN(Cc2nc3cc([N+](=O)[O-])ccc3n2CC)CC1,-7%
NC(=O)CC[C@H](NC(=O)c1ccc(F)cc1)C(=O)OCC(=O)NCc1ccc(F)cc1,71µM*
CC(=O)NC(=S)Nc1ccc(NC(=S)NC(=O)c2ccc([N+](=O)[O-])cc2)cc1,-2%
Cc1cccn2c(=O)c(C=O)c(N3CC(C)OC(C)C3)nc12 (stereo not given),3%
CCC(=O)NC(=S)Nc1cccc(Cl)c1N1CCCC1,-10%
Oc1c(CN2CCCCC2)cc(COCc2ccccc2)c2cccnc12,3%
Oc1ccccc1Nc1ccccn1,-5%
O=C(COc1ccc(/C=N/NC(=O)c2ccc(O)cc2)cc1)Nc1ccc([N+](=O)[O-])cc1,2%
NS(=O)(=O)c1cccc(NC(=O)COC(=O)c2cc(-c3ccc(Cl)cc3)nc3ccccc23)c1,-15%
C[C@H](NC(=O)[C@@H]1Cc2ccccc2CN1)C(=O)NC[C@H]1CC[C@H](C(=O)O)CC1,-15%
O=C(NCCCN1CCOCC1)c1ccccc1,-10%
COc1cccc(C(=O)Nc2ccccc2-c2nnc(-c3ccc(C(C)(C)C)cc3)o2)c1,-14%
COc1ccc(-n2c(=S)[nH]c3cc(C(=O)NCc4cccnc4)ccc3c2=O)cc1,24%
Cc1ccnc(NC(=O)CCCNC(=O)c2ccc(Cl)cc2)c1,19%

Next section
mol,VDR inhibitor
CCn1c2ccccc2c2cc(NC(=O)COc3ccc(C)cc3C)ccc21,-1%
CC(=O)c1cccc(NC(=O)C(C)OC(=O)CNC(=O)c2ccc(C)s2)c1 (stereo not given),-13%
CCN(C(=O)CSc1nncn1-c1ccccc1)C1CCS(=O)(=O)C1 (stereo not given),-5%
COc1cc(N)c(Cc2nccc3cc(OC)c(OC)cc23)cc1OC,-3%
COc1ccc(COC(=O)CNC(=O)C2CCCCC2)cc1F,-2%
COc1ccc(N(CCCN2C(=O)c3cccc4cccc(c34)C2=O)C(=O)c2ccncc2)cc1,0%
COc1ccc(F)cc1C(=O)C1CCCN(Cc2ccc(Sc3nncn3C)o2)C1 (stereo not given),9%
O=C(Nc1ccccc1)Nc1nc2ccccc2s1,-1%
Cc1nc(NCc2ccccn2)c2ccccc2n1,-2%
CC1(C)NC(=O)N(CC(O)COc2cccc(F)c2)C1=O (stereo not given),-20%
COc1ccc(CN2C(=O)CCC2(C)C(=O)NCc2cccnc2)c(OC)c1 (stereo not given),?
N#Cc1c(Cl)nsc1NC(=O)c1ccccc1,14%
Cc1ccnc(SCc2cc(=O)c(OC(=O)c3ccco3)co2)n1,-6%
CN(C)c1ccc(/C=N/N2C(=O)c3ccccc3C2=O)cc1,26%
Cc1ccccc1Cn1ccc(NC(=O)c2nn(C)cc2[N+](=O)[O-])n1,12%
CCOc1ncccc1C(=O)Nc1cc(S(=O)(=O)N2CCCCCC2)ccc1OC,-10%
Cn1ncc(Br)c1NC(=O)c1cc(Cl)cc(Cl)c1,-7%
O=C(O)CCC(=O)NNC(=O)c1ccc(Br)cc1,-7%
Cc1ccc(OCC(=O)N2CCOCC2)c([N+](=O)[O-])n1,1%
O=S(=O)(c1ccc(Cl)c(F)c1)N1CCC(c2nc(-c3ccncc3)no2)CC1,0%
COc1ccccc1[C@@]1(C)ON(c2ccccc2C(F)(F)F)C1=O,-2%
CC(=O)c1c(CC(=O)O)[nH]n(-c2nc3ccccc3s2)c1=O,?
COCC1CCN(C(=O)c2cc(COc3ccc(-n4cncn4)cc3)on2)C1 (stereo not given),-6%
CCOc1cc(S(=O)(=O)NCCc2ccc(OC)c(OC)c2)c(OCC)cc1-n1cnnn1,7%
Cc1ccccc1CN(c1ccc(C(=O)NCC2CCCO2)cc1)S(C)(=O)=O (stereo not given),?
COc1cccc(N2CCN(S(=O)(=O)c3ccc(CN4C(=O)c5cccnc5C4=O)cc3)CC2)c1,-13%
COc1ccccc1OCC(=O)N1CCCCCCC1,2%
COc1ccccc1C(=O)N=C1NC(=O)CC2C(=O)NCCN12 (stereo not given),-10%
COc1cc2c(cc1OC)C(c1ccccc1)N(C(=O)CCl)CC2 (stereo not given),-4%
COc1cc2c(-c3ccccc3)c(C)oc2cc1/C=N/NC(N)=S,-23%

Of the compounds above, these contain a furan ring, fused or not:
mol,VDR inhibitor
CC1CCCCN1C(=O)c1ccc(Br)o1 (stereo not given),3%
O=C(CSCc1ccco1)NC1CCCC1,-23%
COc1ccc(F)cc1C(=O)C1CCCN(Cc2ccc(Sc3nncn3C)o2)C1 (stereo not given),9%
Cc1ccnc(SCc2cc(=O)c(OC(=O)c3ccco3)co2)n1,-6%
COc1cc2c(-c3ccccc3)c(C)oc2cc1/C=N/NC(N)=S,-23%

Continuation:
mol,VDR inhibitor
COc1ccc(-c2nc(CNS(=O)(=O)c3ccc(F)cc3)cs2)cc1,15%
Cc1ccc(-c2cc(C(=O)OCC(=O)N(C)C3CCS(=O)(=O)C3)c3ccccc3n2)c(C)c1 (stereo not given),-25%
OC[C@H]1O[C@H](n2cnc3c(NC4CCCC4)nc(Cl)nc32)[C@@H](O)[C@@H]1O,6%
O=C(Nc1ccc(S(=O)(=O)Nc2ncccn2)cc1)c1ccc(Cl)c([N+](=O)[O-])c1,12%
O=C1C2C(C(=O)N1/N=C/c1cc(Br)cc([N+](=O)[O-])c1O)C1C=CC2C12CC2 (stereo not given),?
CCOC(=O)c1sc(=S)n(-c2ccc(Cl)cc2)c1SC,-2%
COc1ccc2c(c1)CCc1cnc(N)nc1-2,-11%

Assay outcomes (PubChem)
